Screening data from PubChem.
D2 ag = agonists of human D2 dopamine receptor. P14416. HEK293 T-REx D2 cells, calcium flux agonist mode. activation, % at 2 µM. 0.53% of 340,000 active. AID 485358;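 active means activation over 3 SD above normal in the single-dose calcium agonist read, cut at about 30% in these data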; further: 0% is about no effect
Target sequence (P14416 whole entry, looked up): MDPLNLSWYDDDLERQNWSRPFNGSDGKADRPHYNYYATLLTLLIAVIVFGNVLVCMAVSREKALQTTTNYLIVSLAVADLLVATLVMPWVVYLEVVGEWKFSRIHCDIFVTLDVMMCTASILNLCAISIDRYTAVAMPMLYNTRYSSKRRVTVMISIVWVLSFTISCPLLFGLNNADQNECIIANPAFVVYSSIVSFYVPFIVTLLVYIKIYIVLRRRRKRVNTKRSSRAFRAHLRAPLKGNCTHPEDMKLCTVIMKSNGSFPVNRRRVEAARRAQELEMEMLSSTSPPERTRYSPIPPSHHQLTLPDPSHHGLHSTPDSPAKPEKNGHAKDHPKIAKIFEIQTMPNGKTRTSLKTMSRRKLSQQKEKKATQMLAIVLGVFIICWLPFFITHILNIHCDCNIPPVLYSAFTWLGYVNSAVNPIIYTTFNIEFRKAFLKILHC
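Calcium-flux readout, 1 cycle/sec over 180 s following compound pin transfer, in inducible HEK293 Trex D2 cells (force-coupled); dopamine controls included. Positive calcium responses during this window marked compounds as potential agonists.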
D2 potentiator = positively modulates the human D2 dopamine receptor allosterically | P14416 | 0.34% of 340,000 active | HEK293 T-REx D2, calcium flux, EC20 dopamine potentiation | potentiation, % at 10 µM;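 active means potentiation over 3 SD above the plate norm, cut at about 30% in these data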; further: 0% is about no effect
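Tetracycline-induced Hek293 Trex D2 cells, force-coupled to calcium, loaded with no-wash calcium dye. Compound added with 180 s kinetic read for agonism, then EC20 dopamine and a further 180 s read for potentiation.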
D2 antagonist = antagonizes the human D2 dopamine receptor | P14416 | HEK293 TREx D2 cells, calcium flux, dopamine EC80 | inhibition, % at 10 µM | AID 485344 | 2% of 340,000 active; in the data active means inhibition above about 30%; further: 0% is about no effect
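Overnight-induced (tetracycline, 30 C) HEK293 T-REx cells carrying force-coupled D2 receive a no-wash calcium dye, then compound, then EC80 dopamine at 180 s; signals are read kinetically throughout.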
D1 antagonist = human D1 dopamine receptor antagonism; P21728; HEK293 TREx D1 cells, calcium flux, dopamine EC80; stronger effect = lower value; activity change, negative = inhibition, % at 10 µM; 3.2% of 360,000 active; in the data active means activity change below about -30%; further: on the % scale 0 is the no-effect control and ±100 the full control effect
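HEK293 T-REx cells expressing inducible, force-coupled D1 receptor; no-wash Ca dye, 30–90 min RT. Cmpd → 180 s read at 1 Hz → EC80 DA → 180 s read.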
D1 PAM = human D1 dopamine receptor positive modulation. 0.036% of 360,000 active. HEK293 TREx D1 cells, calcium flux, dopamine EC20 potentiation. potentiation, % at 10 µM. P21728; in the data active means potentiation above about 30%; further: 0% is about no effect
An asterisk follows results filed as active; . = no result given. Some of the compounds tested; count on the stated rates, not on these rows.

SMILES	D2 ag	D2 potentiator	D2 antagonist	D1 antagonist	D1 PAM
c1ccc2c(c1)-c1cccc3cccc-2c13	0.7	7	-1	9	0
COC(=O)c1cncn1C(C)c1ccccc1 (configuration not stated)	-1.0	-2	20	1	-6
COc1ccc(O)c(C(C)(C)C)c1	12	13	7	15	-11
c1ccc2cc(CC3=NCCN3)ccc2c1	12	6	-16	-4	-5
C[C@]12CCC3[C@@H](CC[C@@H]4C[C@H](O)CC[C@]34C)[C@@H]1CCC2=O (some centres not stated)	-0.8	-1	4	10	-6
CCCCCCC(=O)c1c(O)n(-c2ccc(OC)cc2)c(=O)[nH]c1=O (tested in a mixture with another compound)	-0.2	1	14	-5	-9
CC(C)OC1CCCC(O)C1CC(=O)O (configuration not stated)	-1.2	1	3	1	0
Cc1cc(Cl)ccc1OCC(=O)O	0.4	-9	-23	-15	-3
ClC(Cl)(Cl)c1ccccc1	.	.	.	.	7
c1ccc(OCC2CO2)cc1 (configuration not stated)	11	-10	0	.	-2
COC1=CC(=O)O[C@@H](/C=C/c2ccccc2)C1	-0.1	-7	-7	-33*	-5
O=c1[nH]oc2c1CCNC2	-1.5	-4	6	10	-7
Nc1ccccc1Cl	-0.3	-1	7	.	-1
CN1CCN(Cc2nnc3n2-c2ccc(Cl)cc2C(c2ccccc2)=NC3)CC1	2.6	-7	-16	-15	7
C[N+](C)(C)Cc1ccccc1	-2.4	3	-16	-19	-5
O=S(=O)(c1ccc(Cl)cc1)c1ccc(Cl)cc1	-0.9	-4	0	.	5
CNC(C)(C)Cc1ccccc1	-0.2	-6	4	-2	-7

Fetched by structure from above (5):
SMILES	D2 ag	D2 potentiator	D2 antagonist	D1 antagonist	D1 PAM
CNC(C)(C)Cc1ccccc1	-0.2	-6	4	-2	-7
COC1=CC(=O)O[C@@H](/C=C/c2ccccc2)C1	-0.1	-7	-7	-33*	-5
CCCCCCC(=O)c1c(O)n(-c2ccc(OC)cc2)c(=O)[nH]c1=O (tested in a mixture with another compound)	-0.2	1	14	-5	-9
c1ccc2cc(CC3=NCCN3)ccc2c1	12	6	-16	-4	-5
C[C@]12CCC3[C@@H](CC[C@@H]4C[C@H](O)CC[C@]34C)[C@@H]1CCC2=O (some centres not stated)	-0.8	-1	4	10	-6

Shown with two lines to a compound: entries from further up
Sequence of screens – D2 ag, D2 potentiator, D2 antagonist, D1 antagonist, D1 PAM
COC(=O)c1cncn1C(C)c1ccccc1 (configuration not stated)
  -1.0, -2, 20, 1, -6
COc1ccc(O)c(C(C)(C)C)c1
  12, 13, 7, 15, -11

Given in CSV form: part of the list above
structure,D2 ag,D2 potentiator,D2 antagonist,D1 antagonist,D1 PAM
O=c1[nH]oc2c1CCNC2,-1.5,-4,6,10,-7
Nc1ccccc1Cl,-0.3,-1,7,.,-1
CN1CCN(Cc2nnc3n2-c2ccc(Cl)cc2C(c2ccccc2)=NC3)CC1,2.6,-7,-16,-15,7
C[N+](C)(C)Cc1ccccc1,-2.4,3,-16,-19,-5
